# Bioassay records deposited in PubChem BioAssay by The Scripps Research Institute Molecular Screening Center.
# OX1R antag-1 – antagonists of human orexin 1 receptor; AID 434989; inhibition, % at 5 µM; actives 0.43% (n = 330,000); O43613; CHO/OX1R cells, Fluo-8 calcium fluorescence, orexin A;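 active means inhibition above its plate's threshold, mean inhibition of all tested compounds on the plate plus 3 SD, cut at about 37% in these data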;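 further: 0% = orexin A challenge wells and 100% = SB-334867-A antagonist wells; not every result past the cut was called active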
# Target sequence (O43613 whole entry, looked up): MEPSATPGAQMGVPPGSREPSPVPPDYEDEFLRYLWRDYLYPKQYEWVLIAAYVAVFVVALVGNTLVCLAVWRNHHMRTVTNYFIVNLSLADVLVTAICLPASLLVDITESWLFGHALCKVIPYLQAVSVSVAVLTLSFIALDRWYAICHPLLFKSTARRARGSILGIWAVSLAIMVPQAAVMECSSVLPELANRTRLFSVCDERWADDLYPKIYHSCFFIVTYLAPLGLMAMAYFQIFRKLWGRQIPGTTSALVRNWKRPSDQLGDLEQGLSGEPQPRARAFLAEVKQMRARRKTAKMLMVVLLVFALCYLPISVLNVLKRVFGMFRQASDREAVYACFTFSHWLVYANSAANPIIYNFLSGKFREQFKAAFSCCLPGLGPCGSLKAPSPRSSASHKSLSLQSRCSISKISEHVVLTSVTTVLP
# OX1R antag-2 – antagonists of human orexin 1 receptor (OX1R). inhibition, % at 6.6 µM. AID 485270. O43613. actives 1.8% (n = 330,000). OX1R-expressing cells, FRET antagonist read-out; in the data active means inhibition mostly above about 38%, no sharp cut-off; inactive means mostly below about 40%;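 further: 0% = agonist challenge alone and 100% = reference antagonist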
# * = called active by the depositor.
Molecule	OX1R antag-1	OX1R antag-2
Cc1sc2nc(COC(=O)c3ccc(N4CCCC4)c([N+](=O)[O-])c3)[nH]c(=O)c2c1C	-12	2
O=C(O)CCC(=O)N1CCN(c2nc3ccccc3s2)CC1	-12	-2
COc1ccc(CNC(=O)CSc2nnnn2Cc2ccccc2)cc1	-31	15
COc1cc(/C=C/C(=O)N2CCOCC2)ccc1OCc1ccccc1	-11	16
COCCn1c(CN2CCN(c3ccc(OC)cc3)CC2)nc2c1c(=O)n(C)c(=O)n2C	-7	15
N#Cc1c(/N=C/c2cc(Br)cs2)sc2c1CCC2	-11	7
Cc1ccc(S(=O)(=O)Nc2ccccc2C(=O)N2CCOCC2)cc1	-5	-2
N#Cc1ccc(-c2ccc(F)cc2)nc1Oc1ccc(F)cc1	-2	8
Cc1sc2nc(SCC(=O)c3cc(C)n(CC4CCCO4)c3C)n(C(C)C)c(=O)c2c1C (stereo not given)	-38	5
O=C(c1cc2ccccc2o1)N1CCN(Cc2ccccc2)CC1	-11	3
CC(C)c1ccccc1NC(=O)CNCCc1ccc(C(F)(F)F)cc1	-12	11
O=C(CSc1nc2ccccc2[nH]1)Nc1ccc(F)cc1	-10	10
CCNC(=O)N1CCC(n2nccc2NC(=O)CCOc2ccccc2)CC1	-6	5
CCN1CCN(CCCNC(=O)CS(=O)(=O)Cc2nc(-c3ccccc3C)oc2C)CC1	-13	14
c1ccc(C2=NNC(=NCc3ccc4c(c3)OCO4)SC2)cc1	-10	20

# Single records, from the list above. Screens in order: OX1R antag-1	OX1R antag-2
# Results for Cc1sc2nc(SCC(=O)c3cc(C)n(CC4CCCO4)c3C)n(C(C)C)c(=O)c2c1C (stereo not given) : -38	5
# Results for N#Cc1ccc(-c2ccc(F)cc2)nc1Oc1ccc(F)cc1 : -2	8
# Results for COCCn1c(CN2CCN(c3ccc(OC)cc3)CC2)nc2c1c(=O)n(C)c(=O)n2C : -7	15
# Results for c1ccc(C2=NNC(=NCc3ccc4c(c3)OCO4)SC2)cc1 : -10	20
# Results for COc1cc(/C=C/C(=O)N2CCOCC2)ccc1OCc1ccccc1 : -11	16

# Next section.
Molecule	OX1R antag-1	OX1R antag-2
O=S(=O)(c1ccc(Br)s1)N1CCN(c2ncccn2)CC1	-10	7
NC12CC3CC(C1)CC(O)(C3)C2	5	-2
O=C(COc1cccc2c1CCN(Cc1ccccc1)C2=O)N1CCCCC1	-21	9
C/C(=N/NS(=O)(=O)c1ccccc1)c1ccc(NC(=O)C(F)(F)F)cc1	-11	15
COc1ccc(N(CC(=O)NCCSc2ccccn2)S(C)(=O)=O)cc1	0	5
CCOc1ccc(CCNC(=O)c2cc([N+](=O)[O-])ccc2N2CCOCC2)cc1OCC	-26	35
c1ccc2c(Nc3nncs3)c3ccccc3nc2c1	-11	21
Cc1nc([N+](=O)[O-])cn1CC(=O)Nc1ccc(Cl)cc1	-9	7
Cc1cccc(C)c1NC(=O)NC1CCc2ccccc21 (stereo not given)	-12	-5
O=[N+]([O-])c1ccc(OCC(O)CN(C2CCCCC2)C2CCCCC2)cc1 (stereo not given)	-16	17
COc1ccc(S(=O)(=O)N2CCN(c3ccc(F)cc3)CC2)cc1C(=O)N1CCCC1	-13	15
COc1ccccc1CN(C)C(=O)C1(c2ccc(Cl)cc2)CC1	-9	12
Cc1sc2ncnc(SCC(=O)NC3CCCC3)c2c1C	-26	13
N#C/C(=C\c1cn(Cc2ccccc2F)c2ccccc12)C(=O)NCc1ccco1	-12	15
CN1CCCN(C(=O)c2cc(=O)[nH]c3ccccc23)c2nc3ccccc3nc21	-22	14
Cc1cccc(NC(=O)CCS(=O)(=O)c2ccc3c(c2)oc(=O)n3C)c1	5	5
O=C(CC(CC(=O)c1ccccc1)C(=O)O)c1ccccc1	-2	7
COc1cc(C(=O)NC(=S)Nc2ccc([N+](=O)[O-])cc2C)cc(OC)c1OC	-16	13
COC(C(=O)Nc1cccc(F)c1)c1ccccc1 (stereo not given)	-13	7
CC1CCN(C(c2ccc(N(C)C)cc2)c2nnnn2C(C)(C)C)CC1 (stereo not given)	-25	13
COc1ccc(S(=O)(=O)N(c2onc(C)c2Cl)S(=O)(=O)c2ccc(OC)cc2)cc1	-5	-1
CC(=O)c1cc(-c2ccc(F)cc2)n(CC(=O)NCc2cccs2)c1C	-8	4
O=C(Cn1ncc2c(=O)oc3ccccc3c21)N(Cc1ccco1)C1CCCCC1	-33	13
CCCOc1ccc(/C=C/C(=O)Nc2ccc([N+](=O)[O-])cc2)cc1	9	31
COc1cc(S(=O)(=O)N(Cc2cccs2)CC2CCCO2)ccc1-n1cnnn1 (stereo not given)	-29	12
O=C(Cn1ccc(C(F)(F)F)n1)Nc1cccc(S(=O)(=O)N2CCCCC2)c1	-32	21
COc1cc([C@@H]2[C@H]3CNCC=C3C(C#N)=C(N)C2(C#N)C#N)ccc1OC(C)C	-24	36
COc1cc(NC(=O)C2CCCN(S(=O)(=O)c3ccc4c(c3)CCCN4C(C)=O)C2)cc(OC)c1 (stereo not given)	-19	12
COc1ccc(-c2cc(C(F)(F)F)n3nc(C)cc3n2)cc1	-34	16
CC1=CCC2(CO)COC(c3ccccc3O)C1C2 (stereo not given)	4	15
COC(=O)c1ccc(COC(=O)C2CCN(S(=O)(=O)c3c(Cl)cccc3Cl)CC2)o1	-19	24
CC(=O)Nc1ccc2nc(SCC(=O)N3CCOCC3)sc2c1	-4	18
CC(C)NC(=O)c1cc2c(=O)n3ccccc3nc2s1	-15	9
O=c1c2c(nc3cc(-c4cccc(F)c4)[nH]n13)CCC2	-14	39
CN1CCN(CCOCCOc2c(Cl)cc(Cl)cc2Cl)CC1	-17	5
Cc1cc(F)c(F)cc1C(=O)N1CCCC1	-11	16
CC(Sc1nc(-c2ccccc2)cc(C(F)(F)F)n1)C(=O)Nc1sc2c(c1C#N)CCC2 (stereo not given)	-1	9
Cc1ccc(Sc2ncccc2C(N)=O)cc1	1	19
COCc1cc(CN2CCN(CCCc3ccccc3)C(CCO)C2)ccc1OC (stereo not given)	-37	7
Fc1ccccc1/C=N/n1c(COc2ccccc2)n[nH]c1=S	-5	14
N#C/C(=C\c1cccnc1)C(=O)Nc1ccccc1	1	9
Cc1cccc(N(C(=O)CCC(=O)Nc2cc(C)on2)C(C(=O)NC2CCCC2)c2ccncc2)c1 (stereo not given)	-8	18
CC(=O)Nc1c(C(=O)N2CCOCC2)sc2nc3c(cc12)COC(C)(C)C3	-11	16
COC(=O)c1ccc(S(=O)(=O)NCc2ccc(OC)cc2)n1C	-16	9
Cc1ccc(-n2ncc3c2CC(C)(C)CC3NC(=O)c2ccc[n+]([O-])c2)cc1 (stereo not given)	-19	4

# In another format: entries from further up
# Sequence of screens – OX1R antag-1	OX1R antag-2
Cc1cccc(N(C(=O)CCC(=O)Nc2cc(C)on2)C(C(=O)NC2CCCC2)c2ccncc2)c1 (stereo not given)
 : -8	18
CC(=O)Nc1c(C(=O)N2CCOCC2)sc2nc3c(cc12)COC(C)(C)C3
 : -11	16

# More records follow:
Molecule	OX1R antag-1	OX1R antag-2
COCCNc1nc(C)cc(-c2cc(C(=O)NC3CCCC3)on2)n1	-13	11
CN(C)c1c(F)cc(C(=O)NCc2ccccc2)cc1F	-10	13
Cc1cc(C)c2c(=O)[nH]n(C3CC(C)N(C)CC3C)c2n1 (stereo not given)	-6	1
CC1CCN(S(=O)(=O)c2ccc(S(=O)(=O)N3CCC4(CC3)OCCO4)cc2)CC1	-1	15
CCOC(=O)Cn1nc(Cc2ccccc2)c2ccccc2c1=O	-27	27
COc1ccccc1NC(=O)Cc1noc(CSc2nnc(N)s2)n1	-3	33
O=C(CSCc1ccccn1)Nc1ccccc1	-7	11
O=C1NC(=Nc2cccnc2)S/C1=C/c1ccc(F)cc1	-7	3
COc1ccc(NC(=O)C(c2ccc(C)cc2)N(C)C(=O)CC2NC(=O)NC2=O)cc1 (stereo not given)	-1	7
Cc1cc(/C=C2\NC(=O)N(Cc3ccc(Cl)cc3)C2=O)c(C)n1C	-10	10
N#Cc1cc([N+](=O)[O-])ccc1NCC1CCCO1 (stereo not given)	-4	61
C=CCNCCCCOc1ccc(OCC)cc1	-19	20
CC1(c2ccc3ccccc3c2)NC(=O)N(CC(=O)N2CCN(S(=O)(=O)c3ccccc3F)CC2)C1=O (stereo not given)	7	17
COc1ccc(C(=O)N2CCOCC2)cc1S(=O)(=O)N1CCCc2ccccc21	-37	25
CC(NC(=S)Nc1ccccc1)C1COc2ccccc2O1 (stereo not given)	-13	19
C=C(C)CSC1=C(C#N)C(c2ccccc2)CC(=O)N1 (stereo not given)	1	-1
O=C(C1CCCCN1S(=O)(=O)c1ccccc1)N1CCN(C(c2ccccc2)c2ccccc2)CC1 (stereo not given)	-15	8
COc1ccccc1NC(=O)c1ccc(NS(=O)(=O)c2cccc3cccnc23)cc1	-7	21
CCOC(=O)C(C)Sc1nc2c(c(=O)[nH]c(=O)n2C)n1C/C=C(/C)Cl (stereo not given)	-28	3
O=C(NCCc1ccc(Cl)cc1)c1cc(-c2ccccn2)nc2ccccc12	-19	25
Cc1cccc(CCNC(=O)COc2cc(=O)n(C)c3ccccc23)c1	-2	9
COc1ccc(Cl)cc1-n1c(=S)sc2c(=O)[nH]c(SCC(=O)C(C)(C)C)nc21	-40	1
CN(C)CCC1Sc2ccccc2Oc2ccccc21 (stereo not given)	-28	17
CC(C)(C)NC(=O)CON=C1c2ccccc2-c2ccccc21	-18	40
CCCCCC/C=N/Nc1nnc(Cc2ccccc2)c(=O)[nH]1	-12	10
CC(NC(=O)C1CCC(CNS(=O)(=O)c2ccc3c(c2)C(C)(C)C(=O)N3C)CC1)c1ccccc1 (stereo not given)	-30	15
Nc1nonc1-n1nnc(C(=O)N/N=C/c2cccnc2)c1CSC1=NCCS1	-15	17
O=C1CN(C(=O)COC(=O)C2=COCCO2)c2ccccc2N1	-9	7
Cc1ccc(N)cc1S(=O)(=O)N(C)C	-3	13
Cc1ccc2cc(CCNC(=O)c3ccc(C)c([N+](=O)[O-])c3)c(=O)[nH]c2c1	-22	11
Cc1cc(SCC(=O)Nc2ccccc2)nc(C)n1	-11	-4
Cc1cc(-c2ccccc2)nc(N2CCC(C(=O)NC34CC5CC(CC(C5)C3)C4)CC2)n1	-16	13
CCOc1ccccc1-n1nnnc1SCC(=O)Nc1cc2oc3ccccc3c2cc1OC	-7	13
COc1ccc(C(=O)NC(=S)Nc2ccc(N3CCOCC3)c(Cl)c2)cc1[N+](=O)[O-]	-19	18
O=C(OCC1COc2ccccc2O1)c1c(F)cccc1F (stereo not given)	-7	-4
CN(C)S(=O)(=O)c1ccc(N2CCCC2)c(C(=O)NCc2ccc(Cl)cc2)c1	-30	16
CC(C)N(C(=O)C(F)(F)F)C(C(=O)NC1CCCCC1)c1ccncc1 (stereo not given)	-14	12
N#C/C(=C\c1cn(Cc2ccccc2)c2ccccc12)C(=O)NCc1ccco1	11	3
CSc1ccccc1NC(=O)NCCCl	4	21
CS(=O)(=O)c1ccccc1-c1nc(-c2ccc([N+](=O)[O-])cc2)no1	-17	23
NNc1nc(C(F)(F)F)nc2ccccc12	7	18
Cc1ccc(OCCN(C)C(=O)C2CCC(=O)N(CCCN3CCOCC3)C2)cc1 (stereo not given)	-10	16
O=C(CSc1nnc(-c2ccc(F)cc2)o1)Nc1ccc(S(=O)(=O)N2CCCC2)cc1	-23	16
O=C(CCNC(=O)c1ccco1)Nc1ccc(SC(F)F)cc1	5	1
O=C(C1CC1)N1CCN(S(=O)(=O)c2ccc3c(c2)OCCO3)CC1	-21	11
O=C(Nc1ccccc1N1CCOCC1)c1cnccn1	-24	10
O=C(Nc1ccc(Cl)cc1Cl)c1n[nH]c(Cn2cncn2)n1	-13	9
CN1CCN(c2ccccc2NC(=O)c2ccc(Br)o2)CC1	-43	34
COC(=O)c1cc(S(=O)(=O)NCCc2ccc(C)cc2)c[nH]1	-12	16
COc1ccc(CNC(=O)Cn2nc([N+](=O)[O-])c(Br)c2C)cc1	-12	25
Cc1ccccc1C(=O)NC1CC2CCCC(C1)N2C(=O)Nc1ccccc1 (stereo not given)	-21	5
O=[N+]([O-])c1nn(-c2ccc3c(c2)OCCO3)n(O)c1=Nc1ccccc1	-24	39
O=C(O)c1cccc(NC(=S)N/N=C/c2ccccn2)c1	-7	18
CCN(CC)CCOc1c(Br)ccc2c1sc1nc3n(c(=O)c12)CCC3	-15	16
COCCNC(=O)CCc1nnc(Cc2ccc(-c3ccccc3)cc2)o1	-17	17
CN1CCN(/N=C/c2ccc(C#N)cc2)CC1	1	38
Cc1cc(NC(=O)CN2C(=O)C3CC=CCC3C2=O)no1 (stereo not given)	-10	15
O=C(CSc1ccccc1)N1CCCC(N2CCN(c3cccc(Cl)c3)CC2)C1 (stereo not given)	-35	34
COc1ccc(N2C(=O)CCC(C(=O)N3CCOCC3)C2c2ccc(F)cc2)cc1 (stereo not given)	-2	14
Cc1c(Cl)c([N+](=O)[O-])nn1CCCC(=O)Nc1c(C)n(C)n(-c2ccccc2)c1=O	-24	33

# More structures
Molecule	OX1R antag-1	OX1R antag-2
CCOC(=O)C1CCCN(C(=O)CCn2nnnc2CN2CCOCC2)C1 (stereo not given)	-11	11
CCC(=O)c1ccc(OCCn2cnc3ccccc32)cc1	-5	18
O=[N+]([O-])c1cccnc1Oc1ccc(F)cc1	-16	6
O=C(CN1C(=O)c2ccccc2S1(=O)=O)c1ccc2c(c1)OCCCO2	-18	13
O=C(Cc1cccs1)NCc1cccc(F)c1	-13	10
Brc1ccc(C2Nc3cccc4cccc(c34)N2)o1	-3	1

# This is a subset, and most or all hits are left out here.
